# Mtb bLac sens = beta-lactam sensitization of Mtb H37Rv, H37Rv; M. tuberculosis H37Rv growth with meropenem, percent inhibition; hits of this screen are not shown here; inhibition, % at 25 µM; actives 0.27% (n = 330,000); AID 434955, 2010;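 active means about 74% or more and at least 40 points above the plate without the antibiotic, then above 30% in a dose series; inconclusive means first-round hits that could not be retested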;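 further: growth measured after seven days incubation then overnight dye step; 0% = bacteria only wells and 100% = bacteria with antibiotic; twin plates without the antibiotic show which effects depend on it; some results filed as inactive read as strong as hits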
# Mtb growth = M. tuberculosis H37Rv growth inhibitors, H37Rv strain (AID 1626). inhibition, % at 10 µM, or IC50 in µM where a hit was titrated. M. tuberculosis H37Rv growth inhibition; higher % means a stronger effect. actives 0.95% (n = 220,000);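 active means confirmed in a dose series; inconclusive means inhibition above 80% but not taken into the dose series; inactive means below 80% or under 30% at every dose of the series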;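 further: bacteria incubated seven days before Alamar blue readout; 0% = bacteria only wells and 100% = bacteria with antibiotic wells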
# Arbovirus inh = antivirals against arbovirus infection, primary screen, cell-based, full library, 10K replicate subset; arbovirus infection cell-based antiviral screen; inhibition, % at 10 µM; actives 0.37% (n = 200,000);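 active means inhibition from about 30%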;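 further: bluetongue infection of BSR cells; cell survival read as ATP light after 72 h; 0% = infected wells without compound and 100% = uninfected wells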
# RecA splice inh = Mtb RecA intein splicing inhibitors, primary screen, biochemical, fluorescence, HTS; actives 0.75% (n = 290,000); inhibition, %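 (about 9 µM by stock and volumes)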; cell-free RecA intein splicing; Protein RecA (Mycobacterium tuberculosis (strain ATCC 25618 / H37Rv)), P9WHJ3; AID 2221, 2009; in the data active means inhibition above about 30%; inconclusive means no clear call, values can overlap the other calls;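 further: 0% = vehicle wells and 100% = reference inhibitor control wells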
# Target sequence (P9WHJ3 whole entry, looked up, canonical isoform): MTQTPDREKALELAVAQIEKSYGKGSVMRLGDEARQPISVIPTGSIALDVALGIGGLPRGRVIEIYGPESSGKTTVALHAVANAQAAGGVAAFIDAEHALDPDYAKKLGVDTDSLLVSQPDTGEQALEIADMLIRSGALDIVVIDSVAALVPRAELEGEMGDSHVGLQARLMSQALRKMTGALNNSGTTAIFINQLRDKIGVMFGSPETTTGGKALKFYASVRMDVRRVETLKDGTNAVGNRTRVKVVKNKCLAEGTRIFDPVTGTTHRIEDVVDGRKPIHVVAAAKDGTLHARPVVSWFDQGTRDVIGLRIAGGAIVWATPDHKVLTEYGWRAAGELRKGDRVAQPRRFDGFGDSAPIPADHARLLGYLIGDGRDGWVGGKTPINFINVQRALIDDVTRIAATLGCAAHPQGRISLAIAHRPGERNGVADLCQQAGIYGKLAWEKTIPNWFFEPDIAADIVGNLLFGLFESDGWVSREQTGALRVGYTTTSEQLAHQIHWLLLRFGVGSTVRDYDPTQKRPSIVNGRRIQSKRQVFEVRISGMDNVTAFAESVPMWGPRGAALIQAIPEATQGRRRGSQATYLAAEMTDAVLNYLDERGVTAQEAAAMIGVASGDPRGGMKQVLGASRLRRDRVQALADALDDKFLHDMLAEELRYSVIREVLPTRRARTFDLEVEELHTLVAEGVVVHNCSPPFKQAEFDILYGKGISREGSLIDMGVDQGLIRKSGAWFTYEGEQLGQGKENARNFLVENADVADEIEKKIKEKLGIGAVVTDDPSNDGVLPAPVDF
# YopH PTP inh = YopH tyrosine phosphatase inhibitors, primary screen, biochemical, fluorescence Ex485/Em525; actives 0.16% (n = 140,000); inhibition, %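 (about 10 µM by stock and volumes)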;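 active means inhibition of 50% or more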;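 further: controls were vehicle for no effect and minimum signal wells for full effect; inactives centre near -20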
# Arbovirus inh repeat = further read-out of Arbovirus inh, marked with its call; inhibition, %; measured here: 10K subset replicate screen; many hits read low in the repeat;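 first of two repeat runs on a subset; 0% = infected and 100% = uninfected wells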
# Starred values were filed as active, the others as inactive; i = inactive; ? = inconclusive; / = not tested or not shown. A portion of the library (hit frequency here may not be typical).
SMILES,Mtb bLac sens,Mtb growth,Arbovirus inh,RecA splice inh,YopH PTP inh,others
Nc1ncnc(Sc2ccccc2)c1[N+](=O)[O-],6.0,8.8%,-13.0,4.2,-18.5,
CN1CCN(CC(=O)Nc2nc3ccccc3s2)CC1,3.6,/,/,0.7,/,
Cc1ccc(-c2noc(-c3ccno3)n2)cc1,-0.8,-15.4%,/,0.5,/,
O=C(O)c1cccc(NC(=O)c2cccc(S(=O)(=O)N3CCc4ccccc4C3)c2)c1,-0.6,-5.0%,1.6,0.0,/,
Cc1csc2nc(CSc3nc4ccccc4o3)c(Br)n12,-3.9,4.7%,2.2,2.4,19.3,
Cc1c(NC(=O)c2cccs2)cccc1NC(=O)c1cccs1,-6.5,/,/,-0.3,/,
COc1cccc(N2CCN(c3nc(C)cc(=O)[nH]3)CC2)c1,-0.8,/,/,1.2,/,
N#Cc1nc(-c2ccccc2)oc1N1CCC(C(N)=O)CC1,-4.0,/,/,-2.4,/,
COc1ccccc1CNC(=O)c1cnc2sccn2c1=O,-3.2,-8.0%,1.6,0.4,/,Arbovirus inh repeat=-5.8
COCCN(C(=O)COC(=O)CCc1c[nH]c2ccccc12)c1c(N)n(Cc2ccccc2)c(=O)[nH]c1=O,0.6,/,/,0.3,/,
CCCCC(=O)N1CCCC(C(=O)OCC)C1 (stereo not given),3.6,-1.3%,9.5,-1.6,-7.4,
O=C(Nc1cccc(Cl)c1)c1ccc(-n2cncn2)c([N+](=O)[O-])c1,-0.5,2.1%,-5.2,-4.3,-30.4,
CCN(c1ccccc1)S(=O)(=O)c1ccc2[nH]cc(C(=O)NCCOC)c(=O)c2c1,6.0,-10.1%,-5.0,-0.8,4.0,
Cc1n[nH]c(=S)n1-c1cccc(Cl)c1,-2.0,-2.9%,5.2,-2.4,-27.7,
CCOP(=O)(OCC)C(NC(=O)Nc1c(C)cc(C)cc1C)c1ccccc1 (stereo not given),4.3,-3.1%,2.3,-0.8,/,
O=C(Cn1nc(-c2ccccc2)c2ccccc2c1=O)NCCO,-3.0,/,/,3.0,/,
COc1ccc(C(=O)c2c[nH]cc2-c2ccccc2)cc1,-3.5,2.9%,-3.6,-1.5,-41.0,
O=C(OCC(=O)N1CCOCC1)c1ccc[nH]c1=O,-2.2,-10.0%,0.8,-2.5,-29.4,
CCOC(=O)CSc1nc2sc(C)c(C)c2c(=O)[nH]1,-12.2,-2.5%,4.9,3.0,-6.0,
O=C(NNc1nc(-c2ccccc2)c2cc(Br)ccc2n1)c1ccc(S(=O)(=O)N2CCOCC2)cc1,19.1,75.3%,-12.8,4.8,-4.8,
CCN1C(=O)N(CC)c2cccc3cccc1c23,-9.1,/,/,-1.2,/,
Cc1ncc(CO)c(/C=N/NC(=O)c2cc(Br)ccc2O)c1O,-1.4,1.2%,23.4,-2.3,/,
CCOC(=O)c1nnn(-c2nc(N3CCCC3)nc(N3CCCC3)n2)c1-c1ccccc1,4.0,/,-0.7,0.2,-51.1,
CCCc1cc(=O)n2[nH]c(NCc3ccccc3F)nc2n1,3.3,-7.4%,10.4,-0.3,-50.6,
Cc1ccc(/C=C/C(=O)c2ccccc(=O)c2O)cc1C,-3.1,42.9%,-36.0,8.9,-15.6,

# Among those listed so far, 9 contain four or more nitrogen atoms.
SMILES,Mtb bLac sens,Mtb growth,Arbovirus inh,RecA splice inh,YopH PTP inh,others
Nc1ncnc(Sc2ccccc2)c1[N+](=O)[O-],6.0,8.8%,-13.0,4.2,-18.5,
CN1CCN(CC(=O)Nc2nc3ccccc3s2)CC1,3.6,/,/,0.7,/,
COc1cccc(N2CCN(c3nc(C)cc(=O)[nH]3)CC2)c1,-0.8,/,/,1.2,/,
N#Cc1nc(-c2ccccc2)oc1N1CCC(C(N)=O)CC1,-4.0,/,/,-2.4,/,
COCCN(C(=O)COC(=O)CCc1c[nH]c2ccccc12)c1c(N)n(Cc2ccccc2)c(=O)[nH]c1=O,0.6,/,/,0.3,/,
O=C(Nc1cccc(Cl)c1)c1ccc(-n2cncn2)c([N+](=O)[O-])c1,-0.5,2.1%,-5.2,-4.3,-30.4,
O=C(NNc1nc(-c2ccccc2)c2cc(Br)ccc2n1)c1ccc(S(=O)(=O)N2CCOCC2)cc1,19.1,75.3%,-12.8,4.8,-4.8,
CCOC(=O)c1nnn(-c2nc(N3CCCC3)nc(N3CCCC3)n2)c1-c1ccccc1,4.0,/,-0.7,0.2,-51.1,
CCCc1cc(=O)n2[nH]c(NCc3ccccc3F)nc2n1,3.3,-7.4%,10.4,-0.3,-50.6,

# Carrying on:
SMILES,Mtb bLac sens,Mtb growth,Arbovirus inh,RecA splice inh,YopH PTP inh,others
Cc1ccc(S(=O)(=O)Cc2nc3ccccc3c(=O)[nH]2)cc1,2.3,-1.1%,-1.6,-2.5,-36.1,
CCOC(=O)c1c(C)nc2sc3c(=O)n(-c4ccc(OC)cc4)cnc3c2c1-c1ccc(OC)cc1,0.3,-7.0%,-4.4,-2.0,-28.7,
CCCN1C(=O)c2ccc(C(=O)NCc3ccco3)cc2C1=O,-6.7,-6.2%,7.6,-0.3,-20.3,
Cc1cc(C)n(C2CC(=O)N(c3ccc(Cl)c(Cl)c3)C2=O)n1 (stereo not given),-8.0,-4.8%,/,-2.4,/,
COc1ccc(N2CC(C(=O)Nc3cc(C)ccn3)CC2=O)cc1 (stereo not given),-5.5,-7.8%,/,-2.4,/,
Cc1nc2ccc(Br)cc2c2c1CC(CO)O2 (stereo not given),-5.4,/,/,-0.2,/,
CN1/C(=C/C(=O)c2ccc(Cl)cc2)Sc2cc3c(cc21)OCO3,2.1,7.1%,-15.4,-2.5,-13.8,
CCOC(=O)c1cc(=O)n2nc(-c3ccccc3F)nc2s1,8.0,-8.2%,2.3,13.2,-8.8,
Cc1nc2ccc(NC(=O)c3cc([N+](=O)[O-])cc([N+](=O)[O-])c3Cl)cc2s1,68.3,6.3%,-29.4,/,-34.4,
Cc1ccc(C2(C)NC(=O)N(CC(=O)NCCC3=CCCCC3)C2=O)cc1 (stereo not given),4.7,4.1%,1.1,0.2,-23.6,
O=c1cc(Nc2ccc3c(c2)OCCO3)[nH]c(=O)n1C1CCCCC1,1.0,3.8%,-21.2,-1.6,-7.3,
CC(=O)Nc1cccc(-c2nnc(SCc3ccccc3C#N)n2C)c1,-3.4,2.9%,3.6,-4.9,-9.2,
CC(C)(C)c1ccc(C(=O)C2CCCN(C(=O)CN3CCCC3=O)C2)cc1 (stereo not given),-5.2,2.6%,-2.0,6.8,/,
CCC(Sc1ccccn1)C(=O)Nc1nnc(C)s1 (stereo not given),4.8,22.0%,21.5,-1.2,-10.9,
CC(=O)NNc1ncnc2c1cnn2-c1ccccc1,1.9,-1.6%,10.5,-1.3,/,
CC1CCN(C(=O)c2cc3ccccc3c(=O)o2)CC1,-1.6,-3.8%,5.2,-2.2,-18.2,
COc1cccc(/C(O)=C/C(=O)C(=O)Nc2ccc(S(=O)(=O)NC(C)=O)cc2)c1,13.1,-3.2%,-2.0,0.7,-25.1,
Cc1ccc(NC(=O)CCN2C(=O)c3ccccc3C2=O)cc1C,-1.2,/,/,-1.4,/,
CCN(CC)C(=O)N1CCc2ccccc21,0.2,3.8%,-0.1,0.0,/,
COc1cccc(CN(C)Cc2nc(Cc3ccccc3Cl)no2)c1,-3.3,12.9%,0.2,4.2,/,
COCCCNS(=O)(=O)c1cc2c3c(c1)C(C)C(=O)N3CCC2 (stereo not given),-6.2,/,/,4.1,/,
OC(COCC(F)(F)C(F)(F)C(F)(F)C(F)F)Cn1c2ccccc2c2ccccc21 (stereo not given),16.7,47.2%,-36.0,3.7,-14.0,
CCOc1ccc(-c2cc3cc(OC)c(OC)cc3c(C)n2)cc1,11.0,3.7%,3.7,-0.5,/,
O=C(CSc1nnc(NCc2ccccc2)s1)NC1CCS(=O)(=O)C1 (stereo not given),-10.2,-7.2%,/,-0.5,/,
CCCCCC(O)(CCN1CCCCC1)c1ccccc1 (stereo not given),2.1,/,/,-2.9,/,
# The list goes on:
SMILES,Mtb bLac sens,Mtb growth,Arbovirus inh,RecA splice inh,YopH PTP inh,others
CCN=C(N/N=C/c1ccc([N+](=O)[O-])cc1)SC,-6.0,-6.2%,5.3,-3.2,-25.6,
Cc1ncc(N=Nc2ccc(F)cc2)c(-c2ccc(Cl)cc2)n1,19.4,3.5%,-4.6,1.6,1.9,
COCC(=O)Nc1cc(C(=O)Nc2ccccc2C)ccc1Cl,6.3,4.5%,-3.5,0.2,-27.4,
O=C(COc1ccc2ccccc2c1)NNC(=O)c1ccc([N+](=O)[O-])cc1,11.2,4.8%,8.1,-5.4,/,
CSc1nc(N(C)NC(=O)c2cccc(C)c2)c2ccccc2n1,-2.2,-0.7%,-17.6,5.4,-35.2,
CCC1=C(OC(=O)N(CC)CC)N2C(=O)OC(=NCC3CC3)[C@]2(C)[C@H]2C1=CC[C@H]1C(=O)N(C)C(=O)[C@H]12,-1.5,-3.7%,/,1.2,/,
CCOC(=O)C1CCN(C(=O)COC(=O)CN(C)S(=O)(=O)c2ccc(NC(C)=O)cc2)CC1,0.2,/,/,-0.7,/,
Cc1cccc(OCc2nn[nH]n2)c1C,5.4,/,/,-2.0,/,
O=C(O)C1C(c2ccccc2)C(C(=O)Oc2ccc(O)cc2)C1c1ccccc1 (stereo not given),-0.4,-6.7%,14.0,9.2,35.8,
CCOCCCNc1nc2nc3ccc(C)cn3c(=O)c2cc1C(=O)NCC1CCCO1 (stereo not given),0.3,-3.6%,-2.8,i,/,
COc1ccc(C(=O)Nc2sc(C)c(C)c2CN2CCOCC2)cc1,2.2,6.4%,4.2,0.8,-18.0,
CCCCOc1ccc(/C=C/C(=O)Nc2ccc(C(N)=O)cc2)cc1,2.7,-0.8%,6.9,0.2,-24.2,
O=C(O)c1ccccc1C(=O)c1ccc(Oc2ccccc2)cc1,2.1,-7.5%,6.5,2.1,-14.1,
COC(=O)c1ccc(S(=O)(=O)NC(C)(C)C)n1C,-2.7,-4.4%,/,-0.5,/,
CC(=O)Nc1nc(C2COc3ccccc3O2)cs1 (stereo not given),-0.3,-6.8%,5.4,-0.2,-7.1,
CCCC(=O)Nc1ccc(NC(=O)c2cccc(OC)c2)cn1,-1.8,/,/,2.5,/,
c1ccc(C(c2ccccc2)N2CCN(c3ccc4ccccc4n3)CC2)cc1,-0.2,5.6%,11.1,2.4,-1.4,
COC(=O)C1=C(C)N(CC(C)C)C(=O)/C1=C\c1cccs1,-3.5,1.9%,2.4,-6.6,-22.5,
COc1ccc(NC(=O)c2sc3nc(C)cc(C)c3c2N)c(OC)c1,97.1,/,/,-3.7,/,
CCNC(=S)NNC(=O)CCc1nc2cc(Cl)ccc2n(Cc2ccccc2)c1=O,-2.0,/,/,-1.4,/,
CCC(C)(C)n1nnnc1C(c1ccc2ncccc2c1)N1CCN(c2ccc(O)cc2)CC1 (stereo not given),-2.4,-10.9%,/,-5.5,/,
Cc1ccc(Cn2c(NS(=O)(=O)c3ccccc3)nc3ccccc32)cc1,-9.1,84.8%,2.1,-0.7,-12.4,
Cc1nonc1C(=O)N/N=C/c1ccc(O)c(O)c1,5.3,-1.9%,-7.6,-6.7,-28.7,
S=c1[nH]cc(-c2ccccc2)n1-c1ccccc1Cl,-5.3,4.1%,-2.5,2.9,-29.6,
O=C(CSc1nnc(CNC(=O)c2ccccc2)o1)Nc1ccc2c(c1)OCCO2,?,/,/,2.3,/,
N#Cc1ncc(-c2ccc3c(c2)OCCOCCOCCOCCO3)nc1C#N,100.0,?,-4.2,35.6*,-4.8,

# Compound activity (PubChem)
